Screens from PubChem.
MgrA DNA FP: S. aureus MgrA activity modulators, primary screen, biochemical, S. aureus Newman, fluorescence polarization; MgrA-DNA binding; inhibition, %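 (about 10 µg/mL by stock and volumes)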; actives 0.13% (n = 84,000);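 active = above 50% in either of two replicates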;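 also: 0% = protein plus DNA without compound and 100% = DNA alone without protein; higher means less MgrA bound to DNA so lower polarization; one replicate is shown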
Sa helicase inh: inhibitors of S. aureus replicative helicase, primary screen, biochemical, fluorescence unwinding readout | AID 485395, 2010 | replicative DNA helicase (DnaC/DnaB), Staphylococcus aureus | purified S. aureus helicase, fluorescence unwinding assay; about half of the hits fall short of the stated cut | inhibition, %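 (tested at about 80 µM)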 | actives 0.05% (n = 120,000);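 active = both duplicates at 50% or more, or one of them with a favoured structure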;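 also: 0% = mean of negative control wells and 100% = mean of positive control wells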
Numbers without * were called inactive; / = no result given; & = joins results of further samples. Some of the compounds tested (hit frequency here may not be typical).

SMILES	MgrA DNA FP	Sa helicase inh
O=C1NCCCC1c1n[nH]c(=S)n1-c1ccccc1Cl (stereo unspecified)	-0.3	/
COc1ccccc1-c1nnc(SC)n1CCc1ccccc1	/	7
FC(F)(F)c1cccc(Sc2ccc3nnc(Cl)n3n2)c1	0.8	/
S=C(NCCCN1CCOCC1)N1CCOCC1	/	14
CCCNC(=O)c1cccc(COCC(F)(F)C(F)F)c1	2.0	15
CSc1nc2sc3c(c2c(=O)n1CC(C)C)CCC3	1.8	0
Cc1cccc(C)c1NC(=O)Nc1cc2sccc2n1C	/	-13
O=C(Nc1cccc2[nH]ccc12)c1cccc(C(F)(F)F)c1	-0.4	/
NC(=O)Cc1cn2ccccc2n1	/	-13
COc1ccc(NC2CC(=O)N(C(C)C)C2=O)cc1 (stereo unspecified)	-1.1	5
OC1(C(F)(F)F)CC(c2ccccc2)=NN1 (stereo unspecified)	-2.6	/
CN(C)n1cccc1/C=C(\C#N)S(=O)(=O)c1ccc(Cl)cc1	-2.1	/
Cc1occc1C(=O)Nc1ccc(OCc2ccccc2)cc1	-0.8	-13
S=c1[nH]nc(NC2CC2)s1	/	-5
Oc1ccccc1C1=NCCNC(C(F)(F)C(F)F)=C1	2.9	-9
N/C(CC(=O)Nc1cc(C(F)(F)F)ccc1Cl)=N\O	/	14
COc1cc(-c2ncnn2-c2sc3c(c2C#N)CCCCC3)cc(OC)c1OC	-1.2	3
CCN(C(=O)Cc1noc2ccccc12)c1cc(C)ccc1C	-0.6	4
CCOC(=O)N1CCN(C(=O)c2cc3c(=O)n(CC)c4ccccc4c3s2)CC1	/	-23
O=C(OCc1cn2cc(Cl)ccc2n1)c1ccc(N2CCCC2=O)cc1	/	-5
CSc1cccc(N2C(=O)C=CC2=O)c1	-7.5	/
Cc1oc(-c2ccc(Cl)cc2)cc1C(=O)N1CCC(O)(c2ccc(Cl)cc2)CC1	-1.1	/
Cc1nc(C)c(Oc2ccc(Cl)cc2Cl)c(=O)[nH]1	-0.5	/
O=C1Nc2ccccc2N(c2ccccc2)N1	/	-86

In the list so far, 4 contain a CF3 group.
SMILES	MgrA DNA FP	Sa helicase inh
FC(F)(F)c1cccc(Sc2ccc3nnc(Cl)n3n2)c1	0.8	/
O=C(Nc1cccc2[nH]ccc12)c1cccc(C(F)(F)F)c1	-0.4	/
OC1(C(F)(F)F)CC(c2ccccc2)=NN1 (stereo unspecified)	-2.6	/
N/C(CC(=O)Nc1cc(C(F)(F)F)ccc1Cl)=N\O	/	14

Carrying on.
SMILES	MgrA DNA FP	Sa helicase inh
CN1CCN(S(=O)(=O)c2cccc3nsnc23)CC1	-5.1	-1
Cc1cccc(C(=O)NC(Cc2ccccc2)C(N)=O)c1 (stereo unspecified)	2.2	7
CC(C)OCC(O)CN (stereo unspecified)	3.4	9
O=C(Cc1ccc(F)cc1)Nc1cc(=O)[nH]c(=O)[nH]1	/	3
CCn1c(=O)c(=O)[nH]c2cc(C(=O)NCc3cccs3)ccc21	/	3
CCOC(=O)c1[nH]c(C)c(CNc2ccccc2)c1C	-1.9	19
COCc1cc(=O)oc2cc(O)c(Cl)cc12	-8.2	/
O=S(=O)(Cc1ccc(Cl)cc1)NCCN1CCOCC1	-1.6	8
CCOc1ccccc1NC(=O)c1ccc(Br)cc1	-2.1	3
Cn1ncc2c(Nc3ccccc3)ncnc21	-3.1	11
Cc1ccc(C)c(N2CCN(CCCNC(=O)CN3C(=O)CSc4ncccc43)CC2)c1	-0.9	1
Cc1ccc2nc(Nc3ccccc3)cc(C)c2c1	0.0	9
Cc1ccc(S(=O)(=O)Nc2ccc(-c3nc4ccccc4o3)cc2)cc1	-0.8	-2
CC(C)COC(=O)C(C)Oc1ccc2c3c(c(=O)oc2c1)CCC3 (stereo unspecified)	1.9	9
COc1ccc(OC)c(/C=C2/SC(=S)N(CC(=O)O)C2=O)c1	0.6	/
O=C(N/N=C1/SCC(=O)N1Cc1ccco1)c1ccccc1F	4.5	-1
O=C(NCc1ccc2c(c1)OCO2)C1CCCN(c2nc3ccsc3c(=O)s2)C1 (stereo unspecified)	/	-27
COC(CNC(=O)CN1C(=O)/C(=C\c2ccc(Cl)cc2)Oc2ccc(C(C)(C)C)cc21)OC	1.0	-6
CCOc1ccc(Cc2nc(C)c(CC(N)=O)c(=O)[nH]2)cc1	-1.8	7
CCCCC(Sc1ccc2nnc(-c3ccc(F)cc3)n2n1)C(=O)O (stereo unspecified)	/	-10
O=C1/C(=C/c2cccnc2)SC(=NCc2ccccc2)N1Cc1ccccc1	3.6	/
c1csc(-c2nc(N3CCCCC3)no2)c1	-0.7	/
O=C(O)c1ccc(Nc2ncnc3ccc(Br)cc23)cc1	/	-17
COc1ccc2sc(N)nc2c1	-0.4	0
CCCCC1(C)OC(=O)C(=Cc2ccc(SC)cc2)C(=O)O1 (stereo unspecified)	17	-4
Oc1ccc(-c2csc3nc(-c4ccccc4)nn23)c(O)c1	4.2	/
Cc1cc(C(C)(C)C)ccc1NC(=O)CC(C)(C)CC(=O)O	-0.7	/
S=C(NCc1ccccc1)N1CCc2ccccc21	/	5
Cc1cc(=O)[nH]c(-c2ccccc2)n1	-1.4	/
COc1ccccc1/C=C(\C#N)c1nc(-c2cc3cc(Br)ccc3oc2=O)cs1	0.7	/
COc1ccc(C(CC(N)=O)CC(=O)O)cc1 (stereo unspecified)	-3.6	/
O=C1c2ccccc2C(=O)N1c1ccc(S(=O)(=O)N2CCOCC2)cc1	-1.0	20
COC(=O)C1c2ccccc2Oc2ccccc21	0.0	/
Cc1cnc(NC(=O)COc2ccc3ccccc3c2)s1	/	-9
CCCc1cc2c(-c3ccccc3)cc(=O)oc2cc1O	/	15
Cc1cc(C)c(S(=O)(=O)N2CCCCC2C(=O)O)c(C)c1 (stereo unspecified)	/	-15

One compound at a time (already shown).
Record of Cc1cc(=O)[nH]c(-c2ccccc2)n1 : MgrA DNA FP: -1.4; Sa helicase inh: /
Record of COC(=O)C1c2ccccc2Oc2ccccc21 : MgrA DNA FP: 0.0; Sa helicase inh: /
Record of Cc1cnc(NC(=O)COc2ccc3ccccc3c2)s1 : MgrA DNA FP: /; Sa helicase inh: -9

(further entries)
SMILES	MgrA DNA FP	Sa helicase inh
COc1ccc(S(=O)(=O)N(CC(=O)NCCSc2ccc(Cl)cc2)c2ccc(C)cc2)cc1OC	-1.4	/
CCC(Cc1ccccc1)NS(=O)(=O)c1ccc2c(c1)CC(C)N2C(=O)C1CC1 (stereo unspecified)	0.9	-11
O=S(=O)(c1ccccc1OC(F)(F)F)N1CCN(c2c(Cl)cncc2Cl)CC1	0.8	/
N#CCCn1cc(C(=O)Nc2nccs2)c(-c2cccs2)n1	2.6	13
O=C1CSC2=NC3=C(CCc4ccccc43)C(c3ccccc3)N12 (stereo unspecified)	/	12
Cc1c(C(=O)NCc2cccs2)oc2ccc3c(c12)C(=O)CC1(CCCC1)O3	/	12
O=C(O)CCC(=O)Nc1ccc2c(c1)Cc1cc(NC(=O)CCC(=O)O)ccc1-2	/	0
CCCCn1c(=O)c(Cc2ccccc2)c(O)c2ccccc21	-0.4	/
Cc1nc(-c2nnc(SCC(=O)Nc3ccc(C(C)C)cc3)n2C)cs1	-1.6	/
CCC(CC)NC(=O)c1ccc2ncsc2c1	/	1
CCN(C(=O)CSc1nnc(C)o1)c1cccc2ccccc12	/	14
CC(C)(CN)N1CCOCC1	/	-26
CC(=O)NC(O)C(=O)c1ccco1 (stereo unspecified)	/	13
Cc1ccc(CNC(=O)c2ccc(CS(=O)Cc3ccc(C)cc3)o2)cc1 (stereo unspecified)	/	30
CSC1=C(C#N)C(c2ccccc2)CC(=O)N1 (stereo unspecified)	0.3	-2
CC(=O)NC1C(Oc2ccccc2C)OC2COC(C)(C)OC2C1O (stereo unspecified)	-0.3	1
CCCCC(=O)NC1(C(F)(F)F)C(=O)N(Cc2ccco2)C(C)=C1C(=O)OC (stereo unspecified)	/	-7
COc1ccc(Cc2nc3ccccc3n2C)cc1	/	13
CC(=O)Nc1sc(C)c(C)c1C#N	0.9	-3
Cc1cc2c(cc1C)CSC(c1ccccc1Cl)SC2	-2.1	/
CC1(C)C(=O)N(c2cccc(Cl)c2)C(=O)C1(C)C	-3.1	4
O=C(Nc1ccc2c(c1)OCCO2)c1cccnc1Oc1ccccc1	-0.9	/
CCCCCCC1/C(=N/O)CCC1C(=O)OC (stereo unspecified)	/	22
Cn1nc(C(F)(F)F)c(-c2ccccc2)c1NC(=O)CCC(=O)O	-1.7	/
CSc1nsc(SC)c1NC(=O)OC1CCCCC1	/	11
S=c1c2c(nc3nc[nH]n13)CCC2	/	-13
O=C(C1=C(O)c2ccccc2S(=O)(=O)N1)c1ccc(Cl)s1	2.0	8
CC(/C=N/n1c(-c2cccnc2)n[nH]c1=S)=C\c1ccccc1	1.5	4
CCOC(=O)c1c[nH]c(=S)[nH]c1=O	0.9	/
CC(=O)Nc1ccc(C(=O)OCC(=O)N(C)C2CCCCC2)cc1	-3.1	10
COc1ccccc1C(=O)Nc1nc2ccccc2s1	/	26
O=c1[nH]c(-c2ccsc2)nc2sc3c(c12)CCC3	1.7	-41
CCNc1nc(NCC)n2c(SCC3CN(Cc4ccccc4)CCO3)nnc2n1 (stereo unspecified)	/	13
O=C(O)c1cccnc1Oc1ccccc1	1.4	/
CC1(C)CC(=O)C2=C(C1)N(c1ccccc1)C(=O)CC2c1cccnc1 (stereo unspecified)	0.0	-9
CC(C)c1ccc(NC(=O)C2CCC(CNS(=O)(=O)c3cccc4nsnc34)CC2)cc1 (stereo unspecified)	0.1	8

Another view of some results above:
Value order – MgrA DNA FP | Sa helicase inh
CC1(C)CC(=O)C2=C(C1)N(c1ccccc1)C(=O)CC2c1cccnc1 (stereo unspecified)
  0.0 | -9
CC(C)c1ccc(NC(=O)C2CCC(CNS(=O)(=O)c3cccc4nsnc34)CC2)cc1 (stereo unspecified)
  0.1 | 8

New compounds follow:
SMILES	MgrA DNA FP	Sa helicase inh
CCOc1ccc(C2=C(CN(C)C)C(c3ccc(F)cc3)c3ccccc3O2)cc1 (stereo unspecified)	-1.1	13
O=c1cc(N2CCc3ccccc32)[nH]c(=O)n1-c1ccccc1	/	-19
CCN1CCN(CCN=C2NS(=O)(=O)C(c3ccc(F)cc3)=C2C)CC1	/	-23
N/C(=N\O)c1ncc(C(F)(F)F)cc1Cl	-1.9	/
COc1ccc(-c2cc(C(=O)N(C)Cc3ccccc3)no2)cc1	1.5	10
CN(C(=O)c1noc2c1CSc1ccccc1-2)c1cccc(C(F)(F)F)c1	-0.2	11
CC1=NNC(=O)/C1=C\c1cn(-c2ccccc2)nc1-c1ccc(F)cc1	-5.2	23
NC(=O)NNc1ccccc1	2.8	/
Cc1ccc(CNC(=O)Cn2ccc(C(F)(F)F)n2)cc1	/	10
CCOc1ncccc1C(=O)OC(C)C(=O)Nc1ccccc1 (stereo unspecified)	/	14
N#CC(C(=O)Nc1cccc(C(F)(F)F)c1)C(=S)Nc1ccccc1Cl (stereo unspecified)	-0.7	/
CCOC(=O)CCN1C(=O)/C(=C\c2cccs2)SC1=S	/	-5
CCCOn1nnnc1-c1ccccc1	-2.2	4
NC(=O)C1CCN(CCC(=O)Nc2ccccc2)CC1	-3.7	0
COc1ccc(C2/C(=C(/O)c3ccccc3)C(=O)C(=O)N2CC(OC)OC)c(OC)c1 (stereo unspecified)	-0.7	9
C=CCSc1nc(N)c2c(C)c(C)sc2n1	/	0
Cc1nccn1S(=O)(=O)c1ccc(Cl)cc1Cl	-7.2	13
COc1ccc(OC)c(NC(=O)c2nnn(CCc3ccccc3)c2N)c1	/	1
O=C(NCc1ccc(F)cc1)c1nn2c(C(F)(F)F)cc(-c3ccco3)nc2c1Cl	-1.7	/
COC(=O)c1ccc(Nc2ccccc2)cc1	0.1	5
CC1Cc2ccccc2N1C(=O)CCn1c(=O)oc2ccccc21 (stereo unspecified)	-2.4	21
Cc1ccc(-n2cnc3c2C(=O)c2ccccc2C3=O)cc1	-2.4	7
O=C(Nc1ccccc1I)C1CCCO1 (stereo unspecified)	1.3	2
CC1(C)NC(=O)N(CCC(=O)O)C1=O	-3.6	16
C=CCn1c(SCC(=O)N2CCCC2)nc2cc(C(=O)NCC3CCCO3)ccc2c1=O (stereo unspecified)	0.5	9
CC(=O)Nc1ccc2nc(NC(=O)CCc3ccccc3)sc2c1	/	-12
Cc1ccc2c(c1)C(c1ccccc1)CC(C)N2C(=O)c1ccccc1F (stereo unspecified)	-0.5	15
Cc1cc(C)c(S(=O)(=O)Nc2ncn[nH]2)cc1C	2.1	2
CC(C)NCC(O)COc1ccc(CC(N)=O)cc1 (stereo unspecified)	-1.5&1.9	/
Cc1ccnc2nc(C(=O)Nc3ccc(N4CCOCC4)cc3)nn12	/	-18
O=C(COCc1cc(-c2ccc3c(c2)OCO3)on1)N1CCN(c2ccc(F)cc2)CC1	/	4
O=C(CN1CCN(S(=O)(=O)c2ccccc2)CC1)NC(=O)NC1CCCCC1	/	-8
CC(C)c1cc(=O)oc2cc(O)ccc12	/	10
O=C1Nc2ccccc2N=C(c2ccccc2)c2ccccc21	-0.4	/
Clc1cccc(Oc2ncnc3c2oc2ccccc23)c1	/	-12
O=[N+]([O-])c1cc(S(=O)(=O)c2ccccc2)cs1	0.0	/
CN1CCN(Cc2cn[nH]c2-c2ccccc2)CC1	-3.4&-0.6	-19
CC(C)(C)C(=O)N(Cc1cccnc1)Cc1cccs1	-1.7	/
C=CCN(CC=C)C(=O)/C=C/c1ccccc1	3.6	/

4 records picked at random from the list so far:
SMILES	MgrA DNA FP	Sa helicase inh
CCOC(=O)c1c[nH]c(=S)[nH]c1=O	0.9	/
COc1ccccc1C(=O)Nc1nc2ccccc2s1	/	26
CCC(CC)NC(=O)c1ccc2ncsc2c1	/	1
CC(C)c1ccc(NC(=O)C2CCC(CNS(=O)(=O)c3cccc4nsnc34)CC2)cc1 (stereo unspecified)	0.1	8
